MT1-MMP promoter – MT1-MMP gene expression reporter suppression – cell-based, luciferase reporter, luminescence (AID 618) | MT1-MMP promoter luciferase reporter cells, luminescence | hit rate 0.62% among 87,000 | calls from a first round at 10 µM; hits with a dose series show EC50 in µM;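 active = over half of the reporter light lost at 10 µM or EC50 under 50 µM; inactive = the rest and hits that failed the dose series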;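 note: actives suppress MT1-MMP promoter-driven transcription so potencies describe inhibitors; HT1080 fibrosarcoma cells; overnight exposure; toxic or luciferase-blocking compounds were not removed from the actives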
WNV NS2B-NS3 inh – WNV NS2B-NS3 proteinase inhibition; hit rate 0.18% among 65,000; z-score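 (tested at a level between 10 and 100 µM)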; WNV NS2B-NS3 protease, fluorogenic substrate Ex360/Em465; stronger effect = lower value; AID 577;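 active = z-score at -3 or under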;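 note: score is relative to mean and spread of the compound wells of a plate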
Target sequence (P06935 1371-1501 limits assumed): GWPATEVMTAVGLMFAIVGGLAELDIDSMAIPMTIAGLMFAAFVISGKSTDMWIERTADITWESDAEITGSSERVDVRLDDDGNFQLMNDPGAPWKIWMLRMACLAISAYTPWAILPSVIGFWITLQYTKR
Target sequence (P06935 1502-1679 limits assumed): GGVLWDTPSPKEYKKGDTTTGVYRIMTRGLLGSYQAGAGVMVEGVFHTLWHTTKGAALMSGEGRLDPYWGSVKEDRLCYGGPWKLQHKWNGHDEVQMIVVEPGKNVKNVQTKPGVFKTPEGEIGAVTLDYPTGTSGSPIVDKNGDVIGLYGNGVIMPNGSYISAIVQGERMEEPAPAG
Hsc70 ATP site – small molecules displacing fluorescent ligand from Hsc70 – biochemical, fluorescence polarization, primary screen (AID 568); Hsc70 fluorescence polarization, probe displacement; higher % means a stronger effect; strong numbers were not always called active; one-dose displacement, % at 20 µM; IC50 in µM for titrated hits; 83,000 tested, under 10 active;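 active = displacement above 50% without optical interference and an IC50 on retest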;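 note: ATPase domain with a fluorescein-tagged ATP probe; 0% = vehicle and 100% = excess ADP; read after one hour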
* = called active by the depositor; i = inactive; . = no result given. Some of the compounds tested (hit frequency here may not be typical).

smiles	MT1-MMP promoter	WNV NS2B-NS3 inh	Hsc70 ATP site
Cc1ccc(C23CC4CC(CC(NC(=O)NC(C)(C)CO)(C4)C2)C3)cc1	i	.	-2.6%
Cc1ccc(-c2nnn(CC(=O)N(CC3CCCO3)C(C(=O)NCC3CCCO3)c3ccc(F)cc3)n2)o1 (stereo not given)	i	.	-3.7%
CCOC(=O)N1CCN(C(=O)C2CCN(C(=O)c3cc4sccc4n3CC)CC2)CC1	i	0.61	-2.3%
CC(C)(C)N=C1NC(=NC(C)(C)C)c2ccccc21	i	-0.24	6.2%
COC(=O)C1CC(c2c(OC)cc(OC)cc2OC)=NO1 (stereo not given)	i	.	-1.6%
O=C(CC1(O)C(=O)Nc2ccccc21)c1ccc2c(c1)OCO2 (stereo not given)	i	-0.63	-3.6%
CCC(=O)N1CCc2cc(S(=O)(=O)NC(C(=O)NCc3ccc(C)cc3)C(C)C)ccc21 (stereo not given)	i	1.84	-3.4%
O=C(NCc1ccc(Cl)cc1)C1CCCN(S(=O)(=O)c2cnc[nH]2)C1 (stereo not given)	i	-0.12	6.2%
CN(C)CCNC(=O)c1ccc(Cl)s1	i	-0.52	5.0%
COc1ccc(N2Cc3cccc(C(=O)O)c3C2=O)cc1	i	-0.16	6.7%
Cc1ccc(CCN2CC(C(=O)NCCCN3CCOCC3)CC2=O)cc1 (stereo not given)	i	-1.14	-6.4%
CCOc1ccccc1C(=O)N1CCC(n2nnc3cc(C)ccc32)CC1	i	-0.54	-0.3%
COc1ccc2nc(NC(=O)C3CCN(S(=O)(=O)c4cnc[nH]4)CC3)sc2c1	i	0.55	4.9%
CCCC(C(=O)NC1CCCC1)N(CCCN1CCOCC1)C(=O)c1snc(C(N)=O)c1N (stereo not given)	i	0.52	6.8%
Cc1c(C(O)CN2CCN(Cc3ccc4c(c3)OCO4)CC2)c2ccccc2n1C (stereo not given)	i	-1.02	4.7%
COc1cc(-c2nc(S(=O)(=O)c3ccc(Cl)cc3)c(N3CCOCC3)o2)cc(OC)c1OC	i	0.28	5.4%
COc1ccccc1N1C(=O)CC(Sc2ncccc2C(=O)O)C1=O (stereo not given)	i	-0.02	-0.9%
CC(C)OC(=O)CSc1nc(N)c(C#N)c(-c2cccs2)c1C#N	i	-0.51	0.2%
CCC(C)(C)NC(=O)C(c1ccc(OC)cc1)N(Cc1ccco1)C(=O)CCC(=O)Nc1cc(C)on1 (stereo not given)	i	.	2.3%
CCCC(=O)Nc1nc(-c2ccc3c(c2)OCCO3)cs1	i	0.17	1.6%
CCn1ncc(C2=NOC(C(=O)Nc3c(C)n(C)n(-c4ccccc4)c3=O)C2)c1C (stereo not given)	i	0.3	7.0%
COc1ccc(NC(=O)CCN2CCCCC2)cc1	i	1.06	-3.9%
O=C(CN(C1CC1)S(=O)(=O)c1ccc(S(=O)(=O)NC2CCCCC2)cc1)Nc1ccccc1	i	0.71	-1.6%
O=C(COc1cccc(NC(=O)c2ccco2)c1)c1ccccc1	i	-0.43	7.3%
COc1cc(NC(=O)Nc2cccc(C(C)=O)c2)cc(OC)c1OC	i	-0.37	29.1%
CC(=O)N1CCN(C2c3cccc4cccc(c34)C2NS(=O)(=O)c2ccccc2)CC1 (stereo not given)	i	-1.82	6.2%
O=C(O)CC(NS(=O)(=O)c1ccc(Br)cc1)c1ccco1 (stereo not given)	i	0.52	-7.8%
COc1ccc(C2N=C(N)N=C(N)N2c2ccc(C)cc2)cc1 (stereo not given)	i	.	1.6%
CCOC(=O)CCSCC(=O)Nc1cc(C)on1	i	-0.03	4.3%
CCOC(=O)c1nn(-c2ccc(C)cc2)c(=O)c2c(N)scc12	i	.	-6.1%
CCCCCNC(=O)C(C#N)c1nc2ccccc2nc1N1CC(C)OC(C)C1 (stereo not given)	i	-0.89	-116.3%
CCOC(=O)c1cc(-c2ccc(OC)cc2F)nc2c1c(C)nn2CCC#N	i	.	0.5%
COc1ccc(OC)c(N(CC(=O)NCc2cccnc2)S(C)(=O)=O)c1	i	0.43	-0.5%
COC(=O)c1c(S(=O)(=O)NCc2ccccc2)sc(C(=O)O)c1C	i	.	4.3%
COC(=O)/C=c1/sc2nc3ccccc3n2c1=O	i	-0.67	-3.3%
O=S(=O)(NCc1ccccc1)c1ccc(Cl)c(S(=O)(=O)NCc2ccccc2)c1	i	.	3.4%
O=C(c1cc2nc(-c3ccco3)cc(C(F)(F)F)n2n1)N1CCc2ccccc2C1	i	-0.46	-1.1%
Oc1ccc(-c2nc(=S)[nH][nH]2)cc1	i	.	4.5%
Cc1ccc(OCc2nc(-c3ccccc3)no2)c(C)c1	i	1.38	-2.7%
COc1ccc(Nc2oc(COc3ccccc3F)nc2C#N)cc1	i	-0.11	-4.8%
CCOC(=O)c1cc2occc2n1CC(=O)N1CCN(C(=O)c2ccco2)CC1	i	-0.55	-2.9%
CCC1OC23CCCCC2C(C#N)(C(=N)O3)C1(C#N)C#N (stereo not given)	i	.	-2.1%
Cn1c(SCC(=O)N2CCOCC2)nnc1-c1ccc(Cl)cc1Cl	i	0.12	-1.4%
COc1cccc(NC(=O)c2ccncc2)c1	i	-0.04	-5.1%
COc1cc(-c2cn(S(=O)(=O)c3cccc4nsnc34)nc2N)cc(OC)c1OC	i	.	3.1%
Cc1cc(C(=O)OCC(=O)N2CC(C)CC(C)C2)c(C)o1 (stereo not given)	i	0.95	2.9%
CCOC(=O)Cc1csc(NC(=O)CN(C)S(=O)(=O)c2ccc3c(c2)CCC(=O)N3)n1	i	-0.58	-0.9%
COc1ccccc1CN1C(=O)c2ccncc2C1=O	i	-1.16	5.5%
O=C(NCc1ccc2c(c1)OCO2)c1c(F)c(F)c(F)c(F)c1F	i	-0.34	1.4%
O=C(NCCc1ccccc1)c1ccc(Br)o1	i	-0.56	-16.9%
N/C(Cc1ccc(Cl)cc1)=N\OC(=O)c1ccc2ccccc2c1	i	.	3.0%
COc1ccc(/C=N/n2c(SC)nnc(C(C)(C)C)c2=O)cc1	i	.	-2.6%
COc1cccc2cc(C(=O)N(C)C3CCN(C)CC3)c(=O)oc12	i	0.35	-7.8%
COCCOC(=O)C1=C(N)OC2=C(C(=O)CCC2)C1c1cccnc1 (stereo not given)	i	0.08	-0.9%
O=C(Cn1nnc(-c2ccc(Cl)cc2)n1)NC1CCN(Cc2ccccc2)CC1	i	1.39	-3.9%
O=C(CN1C(=O)c2ccccc2C1=O)NCc1ccccn1	i	0.5	-1.5%
Cc1ccc(N=Cc2cc(C)n(C3CCCC3)c2C)cc1	i	.	-3.4%
COc1cc(C)c(S(=O)(=O)NC2CC(C)(C)NC(C)(C)C2)cc1C	i	-1.55	0.8%
COc1ccc(C)cc1S(=O)(=O)N(C)CC(N)=O	i	0.07	-4.1%
CSc1cccc(NC(=O)c2ccc(Cl)nc2)c1	i	.	-3.1%

Going on with the list:
smiles	MT1-MMP promoter	WNV NS2B-NS3 inh	Hsc70 ATP site
Cc1cc(NC(=O)Cc2cccs2)nn1CC(=O)NCc1ccco1	i	1.05	-3.4%
COC(=O)c1cc(CN2CCN(c3ccccc3C)CC2)ccc1O	i	.	3.2%
COc1ccccc1N1CCN(C(=O)c2cnn3cccnc23)CC1	i	0.94	-4.7%
CC(=O)Nc1nc(C)nc(-c2ccccc2)c1C(C)=O	i	0.19	-2.4%
CCOC(=O)c1sc(NC(=O)CSc2nccc(C)n2)c(C#N)c1C	i	.	-0.4%
Cc1ccc(NC(=O)CSCC(=O)O)c(C)c1	i	-0.76	-2.8%
CCn1c(SCC(=O)c2ccccc2)nc2c(c1=O)SC(C)C2 (stereo not given)	i	-0.7	-0.2%
COCCN1C(=O)c2ccccc2C(C(=O)N2CCN(c3ccccn3)CC2)C1c1ccc(F)cc1 (stereo not given)	i	.	2.4%
O=C1CCCN1CCC1CCN(C(=S)Nc2ccc(F)cc2)CC1	i	.	0.1%
Cc1nc2ccccn2c1C(=O)N/N=C/c1cc(C)n(-c2ccc(Cl)cc2)c1C	i	.	4.0%
CCOc1ccccc1N1CCN(C/C=C/c2ccc(N(C)C)cc2)CC1	i	.	-2.1%
COCCCNc1nc(SCc2ccccc2)nc2sc3c(c12)CCC3	i	.	2.5%
COc1cccc(N2CCN(c3ncnc4c3cnn4-c3ccc(C)cc3C)CC2)c1	i	1.69	-1.2%
COCCn1c(C)cc(C(=O)CN2C(=O)NC3(CCCCCCC3)C2=O)c1C	i	-1.24	-3.1%
CCOC(=O)c1sc2c(c1C)C(c1cccs1)C1=C(CCCC1=O)N2 (stereo not given)	i	0.71	3.8%
COc1cccc(OCCSc2nnc3sc4ccccc4n23)c1	i	-0.92	-2.1%
COc1ccc(N2CCN(S(=O)(=O)c3ccc(C(=O)NC4CCCC4)cc3)CC2)cc1	i	-1.44	1.0%
CC1CCCC(C)N1CCCNC(=O)c1cc2c(=O)n(C)c3ccccc3c2n1C (stereo not given)	i	-0.38	2.0%
CCOC(=O)c1c(C)[nH]c(NC(=O)N2CCOCC2)c1C	i	-0.49	2.6%
Cc1cc(C)nc(N2CCCC(C(=O)NC3CCCC3)C2)n1 (stereo not given)	i	1.27	0.5%
O=C(CCCOc1ccc(Cl)cc1Cl)Nc1ccncc1	i	.	-2.6%
Cc1ccc(C(=O)Nc2sc3c(c2C#N)CCCCC3)cc1C	i	.	1.5%
O=C(NCCC1=CCCCC1)c1ccc(Br)o1	i	-0.54	9.4%
COC(=O)Cc1c(C)c2ccc(OC(=O)c3ccco3)cc2oc1=O	i	1.5	2.1%
O=C(Nc1ccc(O)cc1)c1cc2n(n1)C(C(F)(F)F)CC(c1ccco1)N2 (stereo not given)	i	-0.6	-6.7%
CCNS(=O)(=O)c1ccc(NC(=O)Nc2cccc(OC)c2)cc1	i	-1.43	-1.9%
COc1cccc(CNC(=O)CCCNS(=O)(=O)c2cccs2)c1	i	-1.32	3.4%
CCCC(=O)NCCSC	i	0.5	-3.5%
COCCNC(=O)COc1cc(=O)n(C)c2ccccc12	i	-0.93	-8.3%
c1ccc(SCc2nc3ccccc3[nH]2)nc1	i	0.08	-2.0%

Reprinted at random: 6 compounds from above.
smiles	MT1-MMP promoter	WNV NS2B-NS3 inh	Hsc70 ATP site
CCCC(C(=O)NC1CCCC1)N(CCCN1CCOCC1)C(=O)c1snc(C(N)=O)c1N (stereo not given)	i	0.52	6.8%
Cc1nc2ccccn2c1C(=O)N/N=C/c1cc(C)n(-c2ccc(Cl)cc2)c1C	i	.	4.0%
COCCOC(=O)C1=C(N)OC2=C(C(=O)CCC2)C1c1cccnc1 (stereo not given)	i	0.08	-0.9%
O=C(Cn1nnc(-c2ccc(Cl)cc2)n1)NC1CCN(Cc2ccccc2)CC1	i	1.39	-3.9%
COc1ccc(C)cc1S(=O)(=O)N(C)CC(N)=O	i	0.07	-4.1%
CCC(C)(C)NC(=O)C(c1ccc(OC)cc1)N(Cc1ccco1)C(=O)CCC(=O)Nc1cc(C)on1 (stereo not given)	i	.	2.3%

(next part)
smiles	MT1-MMP promoter	WNV NS2B-NS3 inh	Hsc70 ATP site
Cc1nc2nc[nH]n2c(=O)c1CCC(C)C	i	0.66	-8.9%
CC1Cn2c(nc3c2c(=O)[nH]c(=O)n3C)O1 (stereo not given)	i	-0.49	2.1%
Clc1cc(Cl)c2nc(N3CCCC3)sc2c1	i	-0.85	3.2%
Cc1cc(C)c(S(=O)(=O)/N=C2\C=CC(=O)C(Cl)=C2)c(C)c1	i	.	3.5%
O=c1[nH]c(-c2cccnc2)nc2ccccc12	i	0.3	-12.2%
Cc1ccc(-c2nn(CCC(=O)O)cc2CCC(=O)O)cc1	i	.	-0.5%
CN(C)C(=O)CN1C(=O)C2CC=C(Cl)CC2C1=O (stereo not given)	i	0.11	2.5%
COC(=O)CN(C#N)c1nc(SC)nc(N(C)C)n1	i	-0.23	5.6%
COC(=O)c1sccc1NC(=O)c1sccc1C	i	.	-6.0%
O=C(CN1CCN(C2CCCCC2)CC1)NCCC1=CCCCC1	i	-0.76	-2.5%
Cc1ccnc(NC(=O)C23CC4CC(CC(C4)C2)C3)c1	i	-0.66	4.6%
OCCN(Cc1ccccc1)Cc1ccc(C(F)(F)F)cc1	i	.	0.6%
Cn1c(=O)c2c(nc(SCCCC#N)n2Cc2c(F)cccc2Cl)n(C)c1=O	i	0.97	6.9%
COc1ccc(C(=O)Nc2cc(OC)ccc2OC)cc1	i	1.7	-13.1%
Cn1nnnc1SCC(=O)Nc1ccc(Oc2ccc(Cl)cc2)cc1	i	0.09	-1.7%
CCOC(=O)c1ccccc1NC(=O)CSc1nc2c(c(=O)n(C)c(=O)n2C)n1C	i	-0.72	-7.0%
